Vaccinia mCherry: vaccinia inhibition (mCherry reporter); Vaccinia virus mCherry reporter infection, fluorescence; about a quarter of the inactives have no number; Potency, µM (titrated, usually from 36.5 µM), for the others: at the highest dose activity change, negative = inhibition, hits mostly inhibitors; 310,000 compounds, 0.63% hits; AID 720579; active = well fitted inhibition curve with a large enough effect; inconclusive = small, poorly fitted or top-dose-only effect; inactive = no such curve, though single readings can be large or run the other way; tested in A549 cells; further: nearly all actives have a fitted effect of over 35% in size; inactives centre near -10
VACV Venus inh: inhibitors of vaccinia virus (Venus reporter) | Vaccinia virus Venus reporter expression, fluorescence | 330,000 compounds, 0.46% hits | Potency, µM (highest dose often 36.5 µM), without a hit: at the highest dose activity change, negative = inhibition, actives largely listed as inhibitors | AID 720580; active means well fitted inhibition curve with a large enough effect; inconclusive means small, poorly fitted or top-dose-only effect; inactive means no such curve, though single readings can be large or run the other way; tested in A549 cells; further: nearly all actives have a fitted effect of over 30% in size; inactives centre near -10
Numbers without * were called inactive; i = inactive; ? = inconclusive; . = not tested or not shown; [ ] = dose if it differs, or a comment. On the % scale 0 is the no-effect control and ±100 the full control effect; potency means the concentration at half of the fitted maximal effect.

SMILES	Vaccinia mCherry	VACV Venus inh
COc1cc2[nH]c(-c3cccc(F)c3)cc(=O)c2cc1OC	-8%	?
COc1ccc(/C(C)=N/OCC(=O)N=Nc2c(O)[nH]c3ccc(Br)cc23)cc1	-11%	1%
COc1ccccc1-n1c(CCn2nc(C)c(Br)c2C)n[nH]c1=S	-12%	-2%
CC(=O)Nc1cc2c(cc1Cl)-c1ccccc1C2	?	?
COc1cc(-c2coc3c(C(=O)NCc4ccc(OC)c(OC)c4)cccc23)ccc1O	16µM*	?
N#Cc1nc(-c2ccccc2)oc1N1CCN(C(=O)c2ccco2)CC1	-9%	-9%
COc1ccc(CNC(=O)C(C)Sc2nc3ccccc3c(=O)n2CCCN2CCOCC2)cc1 (configuration not stated)	0%	-2%
CCOc1ccccc1NC(=O)c1cc2cc3cc(C)ccc3nc2s1	-19%	-18%
S=C(NCC1CCCO1)Nc1ccc(Cl)cc1Cl (configuration not stated)	-10%	-3%
COc1ccc(OC)c(S(=O)(=O)N2CCC(C(=O)Nc3cccc(C)c3C)CC2)c1	-14%	-21%
CCCCn1c(COc2cccc(OC)c2)nc2ccccc21	1%	2%
CCNC(=O)CC1C(=O)N(c2cccc(OC)c2)C(=O)N1CCOC (configuration not stated)	.	-12%
O=c1c2c(ncn2C2CCCC2)n(Cc2ccccc2)c(=O)n1CCOc1ccc(Br)cc1	-2%	-5%
CCCCC(=O)NC1CC(=O)N(c2ccc3c(c2)OCCO3)C1 (configuration not stated)	-4%	-3%
Cc1cc(C)cc(SCc2noc(C(=O)NC(C)C)c2C(=O)NC(C)C)c1	i	-16%
Cc1csc(SCC(=O)Nc2ccc(Cl)cn2)n1	i	-4%
O=C(Nc1ccc(Cl)cc1)ON=C1CCCC1	-12%	-18%
CC(C)=CCc1c(-c2ccc(O)cc2O)oc2c3c(cc(O)c2c1=O)OC(C)(C)C=C3	1%	-12%
COc1ccc(C(=O)OC/C(O)=C(\C#N)c2nc3ccccc3[nH]2)cc1S(=O)(=O)N1CCOCC1	-12%	-2%
CCC(C)/C(C)=N/NC(=O)CNS(=O)(=O)c1ccc([N+](=O)[O-])cc1 (configuration not stated)	-18%	-3%
Cc1cc(C)cc(N2C(=O)CN(Cc3sccc3C)C2=S)c1	-6%	-17%
CC(O)C(=O)N/N=C/c1ccccc1C(=O)O (configuration not stated)	-14%	3%
CSc1nccn1CC(=O)Nc1ccc(F)cc1	-16%	-13%
CC(C)NS(=O)(=O)c1ccc(NC(=O)C(C)OC(=O)CCC2CCCCC2)cc1 (configuration not stated)	-16%	-13%
CCOC(=O)c1cc(-c2ccccc2)sc1NC(=O)C(C)Sc1nnc(N)s1 (configuration not stated)	-11%	-24%

Going on with the list.
SMILES	Vaccinia mCherry	VACV Venus inh
COc1ccc(/C=C(/NC(=O)c2ccccc2Cl)C(=O)NCCCC(=O)O)cc1	i	-11%
Cn1cccc1C1C=C(c2ccc(C(C)(C)C)cc2)Nc2ncnn21 (configuration not stated)	?	?
O=C(CN1C(=O)CCC1=O)Nc1nc(-c2ccc(Cl)s2)cs1	-13%	-8%
C[C@@H]1CN([C@H](C)CO)C(=O)CCCn2cc(nn2)CO[C@H]1CN(C)S(=O)(=O)c1ccc(-n2cccn2)cc1	-12%	-17%
O=C(Cn1nc(CNc2ccc(Br)cc2)[n+]2c1CCCCC2)c1ccc([N+](=O)[O-])cc1	-19%	-15%
CCOC(=O)C1(CCOc2ccccc2)CCN(Cc2ccc(O)c(OCC)c2)CC1	?	-12%
CC(=O)Nc1ccc(NC(=O)Cn2ccc([N+](=O)[O-])n2)cc1	-9%	-15%
CCO[C@@H]1OC(C(=O)NC2CC2)=C[C@H](C2CCCCC2)[C@H]1CCCO	i	-13%
COC(c1ccccc1)c1nnc(CCC(=O)N2CCN(Cc3cccs3)CC2)o1 (configuration not stated)	i	-7%
Cc1nc2cc3ccccc3cc2n1C	i	-15%
Cc1cccc(NC(=S)NCC(c2cccnc2)N(C)C)c1C (configuration not stated)	-6%	-7%
COc1ccc(-c2ccc(OC)c([C@H]3[C@H]4C=CC[C@@H](C)[C@@H]4C(=O)N3Cc3ccccc3)c2)cc1OC	-17%	?
COC(=O)c1c(OCc2cccnc2)cc(=O)n2c1CCN(C(=O)c1cccc(N(C)C)c1)CC2	-4%	1%
CCc1nc(SCc2cc(=O)c3cc(C)ccc3[nH]2)n[nH]1	0%	-10%
Cc1cc(C(=O)CSc2nnc(Nc3ccccc3F)s2)c(C)n1CC1CCCO1 (configuration not stated)	i	-15%
CCN(CC)c1ccc(C=Nc2ccccc2C)c(O)c1	0%	-8%
CCOc1ccc(NC(=O)C2CC(=O)N(CCc3ccccc3)C2)cc1OC (configuration not stated)	-2%	-6%
O=C1Nc2ccc(I)cc2C1=Cc1cc(Br)c(O)c(Br)c1	?	29%
COc1ccc(-c2cc(-c3cc(C)ccc3O)[nH]n2)cc1	8.9µM*	?
CCc1c(C2(O)CCCCC2)[nH]c2ccc(C(=O)OC)cc12	-2%	-6%
O=C(N/N=C/c1cn[nH]c1-c1ccc(F)cc1)c1ccncc1	-12%	0%
O=C(CSc1nnc(-c2ccc(F)cc2)o1)N1CCN(C(=O)c2ccco2)CC1	i	-13%
COc1cccc(CC2(CO)CCCN(Cc3c(C)cc(C)cc3-n3cccn3)C2)c1 (configuration not stated)	-8%	-23%
CC1CCN(S(=O)(=O)c2ccc3c(c2)N(CC(=O)NCC(C)c2ccccc2)C(=O)CO3)CC1 (configuration not stated)	-9%	0%
CCOC(=O)c1ccc(OCC(=O)c2ccc(O)cc2O)cc1	-8%	0%

Carrying on.
SMILES	Vaccinia mCherry	VACV Venus inh
Cc1ccc(C(=O)NCCNC(=O)COc2ccccc2Cl)cn1	6%	-10%
Cc1ccc(-c2c(N)nc3ncccn23)cc1	?	-3%
COC(=O)c1ccccc1NC(=O)Cc1nc(-c2ccc(OC)cc2)no1	i	-15%
Cc1ccc(-n2nnc(-c3nsc(NC(=O)c4cccc(Cl)c4)n3)c2C)cc1C	0%	-2%
O=[N+]([O-])c1cc([N+](=O)[O-])c(Oc2cccc(Cl)c2Cl)cc1NN1CCCCC1	-16%	-19%
COC(=O)C1=C(c2cc3ccccc3s2)C[C@@H]2CC[C@H]1N2C(=O)NC1CCCCC1	-12%	?
CC(=O)c1ccc(NC(=O)CSc2nc3c(=O)n(C)c(=O)n(C)c3n2C)cc1	-14%	-5%
CC(C)Oc1cccc(C(=O)NC(=S)Nc2ccccc2N2CCOCC2)c1	-13%	7%
NC(=O)CSc1nc2c(sc(=S)n2-c2ccccc2)c(=O)[nH]1	-13%	-10%
CCOc1ccc(NC(=O)CSc2nc3ccsc3c(=O)n2Cc2ccc(C(=O)O)cc2)cc1	i	2%
CN(Cc1ccco1)c1ncnc2ccc(-c3cccnc3)cc12	-6%	-3%
Cc1[nH]c2ccccc2c1C(=O)COC(=O)C1CCC(=O)N1 (configuration not stated)	.	-1%
Cn1cnnc1Sc1nc2ccccc2nc1NS(=O)(=O)c1ccccc1	-2%	-5%
O=C(NCc1n[nH]c(=S)n1-c1cccc(Cl)c1)c1cccs1	8%	5%
C=CCNC(=S)N/N=C/c1cccc([N+](=O)[O-])c1	i	-19%
COC(=O)CCC(=O)c1oc2ccccc2c1NC(=O)CCCN1C(=O)c2ccccc2C1=O	-26%	?
O=C(NC1CCCc2ccccc21)C1CCC(CNS(=O)(=O)c2cccc3nsnc23)CC1 (configuration not stated)	14%	-12%
CCCCCCCc1ccc(-c2ccc(O)cc2)nc1	2%	-11%
COc1ccccc1CNC(=O)C(C)Oc1ccccc1 (configuration not stated)	-9%	-8%
Fc1ccc(F)c(CNc2ncnc3cc(Cl)ccc23)c1	i	-12%
CC(C)Cc1nnc(NC(=O)CSc2nc(-c3ccccc3)cc(=O)[nH]2)s1	-18%	-10%
COc1ccc(C(=O)NC2CCN(C(=S)Nc3cccc(C)c3)CC2)cc1	-2%	1%
COc1ccccc1Nc1cc(C(=O)NCc2cccnc2)c2ccccc2n1	i	17%
O=C(Cn1nnc2c(cnn2-c2ccc(F)cc2)c1=O)OC1CCCCC1	-23%	-23%
COc1cccc(C=Nc2ccccc2C(=O)Nc2nccs2)c1OC	.	-13%

Full records as entered above:
CCOc1ccc(NC(=O)CSc2nc3ccsc3c(=O)n2Cc2ccc(C(=O)O)cc2)cc1 is listed with Vaccinia mCherry: i; VACV Venus inh: 2%
C=CCNC(=S)N/N=C/c1cccc([N+](=O)[O-])c1 is listed with Vaccinia mCherry: i; VACV Venus inh: -19%

The list continues.
SMILES	Vaccinia mCherry	VACV Venus inh
Brc1ccccc1C1N=C(c2ccccc2)NO1 (configuration not stated)	?	-1%
CCCCOc1ccccc1NC(=O)CC1SC(=NCC)N(CC)C1=O (configuration not stated)	.	-18%
Cc1ccc(-n2nc3cc(C)c(NC(=S)NC(=O)/C=C/c4ccco4)cc3n2)cc1	-14%	-4%
CCN(CC)CCNC(=O)c1cn(CCOC)c(=O)c2c1c1ccccc1n2C	-17%	-7%
Cc1ccc(NC(=O)c2ccc(NS(=O)(=O)c3cccc4cccnc34)cc2)cc1	?	-27%
CCOC(=O)c1[nH]c2ccccc2c1NC(=O)CN1CCCCC1	.	0%
Cc1cc(C)nc(SCC(=O)Nc2ccc3c(c2)OCO3)n1	i	-16%
Cc1nc2ccccc2c(=O)n1NC(=O)C1CC1	-10%	0%
COc1ccc(OC)c(NC(=O)c2nnn(Cc3ccc(Br)cc3F)c2N)c1	-23%	-11%
C/C=C/c1ccc(OCCn2cncn2)c(OC)c1	-22%	-14%
Cc1c(NC(=O)c2cccnc2Cl)c(=O)n(-c2ccccc2)n1C	i	-4%
C#CCOCCOCCOCCNc1nc(N2CCN(C(=O)[C@H](CC(N)=O)n3cc([C@@H](N)C(C)C)nn3)CC2)nc(N2CCN(C(=O)[C@H](CC(N)=O)n3cc([C@@H](N)C(C)C)nn3)CC2)n1	i	-3%
CC(C)[C@@H](C(=O)NCC1CCC(C(=O)O)CC1)n1nnc2ccccc2c1=O (some centres not stated)	i	-11%
CCc1cccc(CC)c1NC(=S)NCCc1c(C)[nH]c2ccccc12	10µM*	?
COC(=O)[C@]1(Cc2ccccc2)N[C@H](CN(C)C(=O)c2ccc(F)cc2)[C@@H]2C(=O)N(C)C(=O)[C@@H]21	-21%	-26%
COc1cc(C(=O)Nc2ccccc2N2CCCCC2)cc(OC)c1OC	i	-15%
Cc1cc(-c2csc(NC(=O)c3cccc(S(=O)(=O)N(C)C)c3)n2)c(C)n1-c1ccccc1	-10%	2%
c1ccc(Cn2ccnc2)cc1	-14%	-11%
O=C(Nc1cc(C(F)(F)F)ccc1F)C1CCCC1	-8%	-5%
CCOc1ccc(NS(=O)(=O)c2ccc(C(=O)NCC(c3ccco3)N3CCCCC3)cc2)cc1 (configuration not stated)	i	-22%
C=CCn1c(=N)n(CC(O)c2ccco2)c2ccccc21 (configuration not stated)	-12%	-10%
CCCCOc1cccc(C(=O)N(Cc2ccccc2)C2CCS(=O)(=O)C2)c1 (configuration not stated)	-1%	-9%
COC(=O)N/N=C/c1ccc(OC(=O)c2ccco2)c(OC)c1	i[7.34 µM]	-8%[7.34 µM]
O=C(Nc1ccc(Cl)cc1)c1cccc(OC(=S)N2CCOCC2)c1	-12%	-21%
COC(=O)[C@@]1(Cc2ccc(F)cc2)[C@H]2c3cc(C(=O)N(C)C)n(C)c3C[C@H]2CN1C(=O)c1ccccc1	-6%	-4%

Of the compounds above, these have a nitro group on carbon:
SMILES	Vaccinia mCherry	VACV Venus inh
CCC(C)/C(C)=N/NC(=O)CNS(=O)(=O)c1ccc([N+](=O)[O-])cc1 (configuration not stated)	-18%	-3%
O=C(Cn1nc(CNc2ccc(Br)cc2)[n+]2c1CCCCC2)c1ccc([N+](=O)[O-])cc1	-19%	-15%
CC(=O)Nc1ccc(NC(=O)Cn2ccc([N+](=O)[O-])n2)cc1	-9%	-15%
O=[N+]([O-])c1cc([N+](=O)[O-])c(Oc2cccc(Cl)c2Cl)cc1NN1CCCCC1	-16%	-19%
C=CCNC(=S)N/N=C/c1cccc([N+](=O)[O-])c1	i	-19%

(continued)
SMILES	Vaccinia mCherry	VACV Venus inh
COc1cc(CNC(C)c2ccccc2)cc(Br)c1OCc1ccccc1 (configuration not stated)	-25%	?
O=C(COc1ccc(Br)cc1)N1CCN(S(=O)(=O)/C=C/c2ccccc2)CC1	-10%	-25%
CCOC(=O)c1ccc(NS(=O)(=O)c2ccc3[nH]c4c(c3c2)CCCCC4)cc1	-12%	4%
CCOc1ccc(NC(=O)C(CC)NC(=O)c2ccccc2CO)cc1 (configuration not stated)	-17%	-7%
Cn1ncc(Br)c1C(=O)Nc1ccc(Cl)cn1	-11%[1.46 µM]	-9%
CN(C)c1ccc(CC2CCc3ccccc32)cc1 (configuration not stated)	-9%	-23%
O=C(Cn1cnc2ccccc2c1=O)c1ccc(Br)cc1	-9%	-13%
CCOc1cc(N2CCOCC2)c(OCC)cc1NC(=O)CSc1cccc[n+]1[O-]	.	-27%
CCn1c(SCC(=O)Nc2nc3ccc(C)cc3s2)nc2c(c1=O)SC(C)C2 (configuration not stated)	?	?
O=C(COC(=O)C1CCCC1)Nc1cccc(Cl)c1Cl	i	-9%
COc1cccc(/C=C2/C(=O)NN(c3ccc(F)cc3)C2=O)c1	-15%	-6%
COCCNC(=S)N1CCN(Cc2ccc3c(c2)OCO3)CC1	i	-16%
Fc1cccc(Cc2c(C3CCCCC3)nc3ccc(Br)cn23)c1	12%	6%

Assay outcomes (PubChem)
